CHT inh = human CHT choline transport inhibition | CHT-expressing cells, membrane potential dye, choline response; stronger effect = lower value | B-score at 10 µM | hit rate 0.86% among 310,000;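 active = B-score over 3 SD under the library average, and starting fluorescence ratio not unusually high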;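 also: choline stimulus applied at its EC90 after an EC20 pre-addition; B-score computed on integrated fluorescence ratio after choline addition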
Target sequence (Q9GZV3 whole entry, looked up): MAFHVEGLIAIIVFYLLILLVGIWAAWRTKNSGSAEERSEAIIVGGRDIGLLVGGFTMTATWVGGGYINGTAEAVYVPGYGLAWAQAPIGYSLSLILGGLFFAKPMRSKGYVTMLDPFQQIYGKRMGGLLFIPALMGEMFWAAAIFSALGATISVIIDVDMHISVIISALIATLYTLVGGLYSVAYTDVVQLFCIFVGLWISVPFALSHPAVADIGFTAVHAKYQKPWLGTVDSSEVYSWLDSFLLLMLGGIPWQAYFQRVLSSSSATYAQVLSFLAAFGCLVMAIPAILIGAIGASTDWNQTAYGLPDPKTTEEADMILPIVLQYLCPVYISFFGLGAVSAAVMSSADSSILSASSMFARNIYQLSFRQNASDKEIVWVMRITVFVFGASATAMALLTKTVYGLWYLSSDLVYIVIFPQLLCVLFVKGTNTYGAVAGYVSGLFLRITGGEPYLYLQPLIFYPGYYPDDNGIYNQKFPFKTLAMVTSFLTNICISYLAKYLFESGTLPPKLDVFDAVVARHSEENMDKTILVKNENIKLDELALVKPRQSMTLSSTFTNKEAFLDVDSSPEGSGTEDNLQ
CHT PAM = allosterically activates the human high affinity choline transporter; hit rate 0.49% among 310,000; CHT-expressing cells, membrane potential dye, choline EC20; stronger effect = higher value; LV-AA mutant CHT in HEK293 cells; AID 488977; B-score at 10 µM; Q9GZV3;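 active = initial fluorescence not abnormally high and integrated response B-score, plate-corrected, over 3 SD above library mean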
Calls only; i = inactive.

entry | Molecule | CHT inh | CHT PAM
1 | COc1ccc(C(=O)N(CC2CCCO2)C(C(=O)NCCC(C)C)c2ccc(C)cc2)cc1OC (stereo not given) | i | i
2 | CC(=O)N1c2ccc(S(=O)(=O)N3CCCC3)cc2CC1C(=O)NCc1ccc(OC(C)C)cc1 (stereo not given) | i | i
3 | Cc1cc(C(=O)CN2CCCCC2)c(C)n1-c1ccc(F)cc1 | i | i
4 | Cc1oc2c(CN3CCCCC3C)c(O)ccc2c(=O)c1-c1ccccc1 (stereo not given) | i | i
5 | Cc1cccc(NC(=S)NCCc2ccc(F)cc2)c1C | i | i
6 | COc1ccc(Nc2nc(N)nc(SCc3nnc(C)s3)n2)cc1 | i | i
7 | COCCN1C(=O)c2oc3ccccc3c(=O)c2C1c1ccc(O)c(OC)c1 (stereo not given) | i | i
8 | O=C(CSc1n[nH]c(Cc2ccccc2)n1)Nc1ccccc1Br | i | i
9 | Cc1cccc(NC(=O)c2ccc([N+](=O)[O-])s2)c1C | i | i
10 | COc1cc(/C=C2/C(=N)N3N=C(CC(=O)N4CCOCC4)SC3=NC2=O)ccc1OCc1ccccc1F | i | i
11 | COc1ccc(C(=O)NCc2ccccn2)cc1 | i | i
12 | O=C(NCCCNCc1ccccc1)c1ccccn1 | i | i
13 | O=C(N/N=C/c1cccnc1)c1ccccc1Br | i | i
14 | O=C(NCc1ccncc1)C1=NN(c2ccccc2)C(=O)CC1 | i | i
15 | CCc1noc(C)c1C(=O)OCC(=O)c1ccccc1OC | i | i

2 records drawn at random from the list so far, as already listed:
entry | Molecule | CHT inh | CHT PAM
11 | COc1ccc(C(=O)NCc2ccccn2)cc1 | i | i
9 | Cc1cccc(NC(=O)c2ccc([N+](=O)[O-])s2)c1C | i | i

The main list resumes, starting seven compounds before the break.
entry | Molecule | CHT inh | CHT PAM
9 | Cc1cccc(NC(=O)c2ccc([N+](=O)[O-])s2)c1C | i | i
10 | COc1cc(/C=C2/C(=N)N3N=C(CC(=O)N4CCOCC4)SC3=NC2=O)ccc1OCc1ccccc1F | i | i
11 | COc1ccc(C(=O)NCc2ccccn2)cc1 | i | i
12 | O=C(NCCCNCc1ccccc1)c1ccccn1 | i | i
13 | O=C(N/N=C/c1cccnc1)c1ccccc1Br | i | i
14 | O=C(NCc1ccncc1)C1=NN(c2ccccc2)C(=O)CC1 | i | i
15 | CCc1noc(C)c1C(=O)OCC(=O)c1ccccc1OC | i | i
16 | CCc1nnc(NC(=O)c2oc3cc(C)c(C)cc3c2C)s1 | i | i
17 | O=C(Nc1ccsn1)c1ccc(Cl)cc1Cl | i | i
18 | O=C(Nc1ccc(N2CCOCC2)c(F)c1)c1cccs1 | i | i
19 | O=C(CN1CCCCCC1)NN(Cc1ccccc1)c1ccccc1 | i | i
20 | Cc1c(C(=O)Nc2ccccc2C(=O)N2CCOCC2)cccc1[N+](=O)[O-] | i | i

Bioassay records (PubChem)

Only part of the results is shown; most or all hits stand in other tables.
